High-throughput results from PubChem.
Bead autofluor: compound fluorescence in toxin protease inhibitor counterscreen; compound autofluorescence counterscreen, microsphere flow cytometry; active compounds read high; fluorescence intensity (concentration not given with the values); 360,000 tested, 3.1% active; AID 624483;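 active = at least 3 SD above the mean of all compounds, about 16000 in these data; inconclusive = too few beads counted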;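 note: 100 nL of 1 mM stock went into each well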
Mtb hypoxia rep: Mtb hypoxia fluorescent reporter inhibition | M. tuberculosis hypoxia-regulated fluorescent reporter, fluorescence | fluorescence inhibition, % (no concentration beside the values) | 300,000 tested, 0.1% active;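 active = 35 to 45% if threefold the growth effect, above 45% if 1.5-fold the growth effect; inactive = the rest, general growth blockers included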;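 note: wells of about 50 µL received 100 nL stock; 0% = vehicle wells and 100% = reference inhibitor wells; whole bacteria with a GFP reporter of the hypoxia response; strong numbers were not always called active; many hits fall short of the cut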
RN4220 kill: kills Staphylococcus aureus RN4220 | inhibition, % (test concentration not listed) | S. aureus RN4220 growth, OD600, 16 h | 330,000 tested, 0.33% active;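 active = z-score of -3 or lower and OD600 up to 0.18 on both plates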;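 note: plate controls were untreated cells for no effect and reference antibiotic for full effect; stock transfer was 100 nL into about 80 µL; one replicate is shown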
Sa ugtP lethal: growth inhibition of S. aureus ugtP deletion strain. growth inhibition, % (no concentration beside the values). 330,000 tested, 0.54% active. S. aureus RN4220 ugtP deletion, OD600 growth, 16 h; some inactives read as strong as hits;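 active = z-score under -3 and OD600 up to 0.15 on both plates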;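 note: plate controls were untreated wells for no effect and antibiotic for full effect; wells of about 80 µL received 100 nL stock; the first replicate is given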
BJeLR lethal: BJeLR cell viability loss; BJeLR (HRASV12) viability, CellTiter-Glo ATP luminescence, 48 h; reference of the scale not given here; inhibition, % (no concentration beside the values); 300,000 tested, 0.17% active; AID 1554;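 active = replicate mean above 50%; inconclusive = above 50% but judged a plate artefact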;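 note: 50 nL library stock added to about 25 µL; numbers are from one replicate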
PrP 5UTR inh: suppresses PrP 5' UTR mRNA reporter expression | 340,000 tested, 0.35% active | inhibition, % (no concentration beside the values) | AID 488862 | cell-based PrP 5' UTR mRNA reporter, plate reader;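 active = every replicate at 50% or more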;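 note: 0 = median of the neutral control wells; tested in H4 reporter cells; numbers are from one replicate; inactives centre near -14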
Mtb hypoxia rep growth: recorded beside Mtb hypoxia rep, whose call it bears; growth inhibition, %; measured here: M. tuberculosis growth (absorbance);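 0% = vehicle and 100% = reference antibiotic; read after six days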
* marks the source's active call; other numbers are inactive results; ? = inconclusive; nt = not tested or not shown.

SMILES	Bead autofluor	Mtb hypoxia rep	Mtb hypoxia rep growth	RN4220 kill	Sa ugtP lethal	BJeLR lethal	PrP 5UTR inh
C=CCc1ccc(OC(=O)c2ccccc2)c(OC)c1	5730	nt	nt	-2.2	-6	2	-16
COC(=O)c1ccc2ccccc2n1	4275	nt	nt	3.5	-6	7	nt
O=C(NC(=O)c1ccccc1)OCC(F)(F)F	3944	nt	nt	2.0	4	0	-21
Cc1cc(F)ccc1S(=O)(=O)Nc1nc2ccccc2nc1Cl	2825	0	-2	9.6	-6	-5	-17
O=C1NC(=S)NC(=O)C1=Cc1ccc(Br)s1	3982	8	3	6.1	0	-1	-12
Fc1ccc(NC(=S)N2CCOCC2)c(F)c1	6269	10	-11	2.0	6	-5	-16
CN1CCN(C(=O)CCN2C(=O)/C(=C\c3ccc(Cl)cc3Cl)SC2=S)CC1	3052	11	8	-0.4	77	5	7
COC(=O)[C@H](Cc1ccccc1)NC(=O)C1(OC(C)=O)CC(OC(C)=O)C(OC(C)=O)C(OC(C)=O)C1 (stereo partly drawn)	3008	4	-9	4.9	6	-11	-19
COc1ccc(Cl)cc1N1C(=O)/C(=C/c2sccc2C)N=C1SCC(=O)NC1CC1	4034	-8	7	-10	-29	nt	nt
COc1ccccc1NC(=O)N1CCN(S(C)(=O)=O)CC1	4059	11	1	9.3	13	-3	-19
O=C(N/N=C/c1ccsc1)c1cc(O)cc(O)c1	4084	nt	nt	nt	nt	4	-17
Cc1cccc(N2C(=O)NC3(CCCCC3)C2=O)c1	9373	6	16	4.3	-3	-12	-20
COc1ccccc1Cc1nc(-c2ccc(Br)o2)no1	5428	nt	nt	0.9	5	-2	-54
O=C(Nc1cccnc1Cl)c1cc(-c2cccc(Cl)c2)on1	3443	-1	-2	0.3	2	-15	-17
O=C(c1cc2nc(C3CC3)cc(C(F)F)n2n1)N1CCOCC1	4895	nt	nt	4.1	-17	-9	-25
COC(=O)CC1=C(C(=O)OC)C(c2cccs2)C(C#N)=C(N)O1 (stereo not drawn)	9897	5	4	1.5	-10	2	-12
CCOC(=O)c1c(C)nc(-c2ccccc2)nc1NC(=O)C(C)C	3067	23	10	4.3	-2	-2	-40
Cc1nc2cc(Cl)c(Cl)cc2n1-c1ccccn1	3942	4	3	1.1	-24	2	-21
CCCCCCCN1C(N(C)C)=NC[C@@H]1Cc1ccccc1	4258	10	18	-9.9	-3	nt	-16
Cc1nn(C)cc1S(=O)(=O)N1CCN(c2ccccc2F)CC1	5822	2	15	2.6	0	-6	1
O=C(N/N=C/c1ccc2c(c1)OCO2)c1ccc(Cn2cc([N+](=O)[O-])cn2)o1	2326	nt	nt	nt	nt	4	-25
COc1ccc(-c2noc(CCC(=O)NC3CCCCCC3)n2)cc1	5902	8	3	-1.6	10	1	-30
O=C(CSCc1ccc(Cl)cc1)Nc1cccc(C(=O)O)c1	3550	5	8	3.0	5	-9	-30
COc1ccc(C(=O)Nc2c(N)nc(SCC(=O)c3ccccc3)[nH]c2=O)cc1	9050	1	11	-2.6	1	7	7
CCCOC(=O)c1ccc(Oc2cn[nH]c2-c2ccc(OCC)cc2O)cc1	3318	1	6	-14	0	-11	-8
COc1ccc(OC)c(S(=O)(=O)NCc2ccc(N3CCN(C)CC3)cc2)c1	5678	8	3	4.5	0	4	-6
O=C(O)C1C2C=CC(C2)C1C(=O)Nc1cccc(Cl)c1 (stereo not drawn)	4028	0	2	6.9	4	7	-3
CC1=C(C(=O)OCc2ccccc2)C(c2cccnc2)n2nnnc2N1 (stereo not drawn)	2640	nt	nt	2.7	8	18	-20
CC(Sc1nc2ccc(Br)cc2[nH]1)C(=O)O (stereo not drawn)	11477	0	2	3.6	-1	3	nt
COc1ccc(S(=O)(=O)N2CCN(c3nc(-c4cccnc4)nc4ccccc34)CC2)cc1	4249	11	4	0.0	-1	nt	-9
Cc1ccc(C2C(C(=O)c3cc4ccccc4o3)=C(O)C(=O)N2CCN2CCOCC2)cc1 (stereo not drawn)	4261	-7	0	7.1	-3	1	-15
COc1ccc(OC)c(NC(=O)C(=O)N/N=C/c2ccccc2[N+](=O)[O-])c1	5754	nt	nt	nt	nt	8	2
CCN(CC)C(=O)CSc1nnc(-c2cccnc2)n1CCc1ccccc1	8486	-1	0	0.5	1	0	nt
CCOC(=O)COc1ccc(S(=O)(=O)c2ccc(OCC(=O)OCC)cc2)cc1	9652	15	5	-5.3	21	3	-15
COC(=O)c1cccc(C23CC4(C2)C(CN(Cc2ccc(-c5ccccc5)cc2)C4c2ccccc2)C3c2ccc(Cl)nc2)c1 (stereo not drawn)	nt	0	13	-2.3	3	nt	nt
CCNC(=S)N/N=C/c1cccc(C)c1	1933	nt	nt	nt	nt	8	-40
CC(Oc1ccc([N+](=O)[O-])cc1)C(=O)NCC1CCCO1 (stereo not drawn)	5434	13	8	2.3	2	6	-9
CCOc1ccc(C(=O)Oc2cc(C)[nH]c(=O)c2[N+](=O)[O-])cc1OCC	5322	6	2	3.6	3	-3	-20
O=C(CSc1nc2ccccc2[nH]1)NCc1ccccc1	4176	6	-2	-0.4	4	-5	-17
Cc1ccc2cc(C)c(SCC(=O)NCC3CCCO3)nc2c1 (stereo not drawn)	3747	-3	-8	-0.4	0	-5	-23
CCCN(CCC)CCCNC(=O)CN1C(=O)CSc2ccc(S(=O)(=O)N3CCOCC3)cc21	4614	1	2	0.1	1	-3	-42
CCCOc1ccc(C2NC(=S)NC(C)=C2C(=O)c2ccccc2)cc1OC (stereo not drawn)	2133	-1	0	5.0	4	-1	-10
O=C(O)CN1C(=O)c2ccc(C(=O)c3ccccc3)cc2C1=O	3120	2	-2	-1.1	-3	-13	-17
O=C(OCc1c(Cl)cccc1Cl)c1cnccn1	4302	7	9	5.5	1	7	-4
CC(=O)c1ccc(N=c2scc(C)n2C(C)C)cc1	4068	17	6	7.6	-61	-3	-26
CCOCC(=O)Nc1cccc(-c2nc3cccnc3s2)c1C	5484	6	8	-5.2	-3	-7	-24
COC(=O)CNC(=O)C(NC(=O)OCc1ccccc1)C(C)C (stereo not drawn)	4443	14	9	4.2	-2	-6	-26
COC(=O)CSc1nnnn1-c1ccccc1	4580	nt	nt	1.0	3	-2	-14
CCCSC1=C(C#N)C(c2ccc(Cl)cc2Cl)CC(=O)N1 (stereo not drawn)	24553*	16	4	13	21	-3	-16
COc1ccc(OCc2nc(N)nc(Nc3ccccc3OC)n2)cc1	7525	7	13	6.0	11	-14	-4
COc1ccccc1NC(=S)NC(NC(=O)c1ccco1)C(Cl)(Cl)Cl (stereo not drawn)	2046	13	3	1.0	11	8	-18
CCN(CC)CCNC(=O)C1CCC(=O)N(c2ccc(OC)cc2)C1c1ccc(F)cc1 (stereo not drawn)	3748	2	-3	1.8	6	nt	-25
O=C1CCCC2=C1C(c1ccc(O)c(O)c1)Nc1ccc3ccccc3c12 (stereo not drawn)	nt	3	4	12	4	-10	-9
COc1cccc(N2CCN(C(=O)CN(C)S(=O)(=O)c3ccc4c(c3)c(=O)n(C)c(=O)n4C)CC2)c1	4307	12	4	2.4	1	1	-11
CCOC(=O)c1c(-c2ccc(C)cc2)csc1NC(=O)/C(C#N)=C/c1ccc(O)c(OC)c1	4405	0	-4	-0.5	-8	2	-25
O=C(Nc1cccc(Cl)c1)Nc1ccnc(-c2cccnc2)n1	2659	-4	1	-1.8	-23	-3	-57
CCn1c(COc2ccc(=O)n(-c3ccccc3)n2)nnc1SCc1ccccc1C	10174	5	7	10	-6	0	-1
COc1ccccc1C(CNC(=O)c1ccc(NS(=O)(=O)c2ccc3c(c2)OCCO3)cc1)N(C)C (stereo not drawn)	5765	9	5	2.4	4	-2	-4
O=C(OCC(=O)N1CCN(S(=O)(=O)c2ccc(Cl)cc2)CC1)c1cccc(OC(F)F)c1	?	-2	2	-2.2	0	2	-13
Cc1ccccc1NC1=NC(=S)N(CC(N)=O)C12CCOC(C)(C)C2 (stereo not drawn)	3102	10	-3	1.8	2	-6	-7
Remaining list, next part:
SMILES	Bead autofluor	Mtb hypoxia rep	Mtb hypoxia rep growth	RN4220 kill	Sa ugtP lethal	BJeLR lethal	PrP 5UTR inh
CCN(CC)C(=O)COc1ccc(C(C)=NNC(=O)c2ccccc2Br)cc1	nt	13	5	5.8	3	nt	nt
O=C(NN=Cc1cccc(OC(=O)c2ccco2)c1)c1ccc(F)cc1	nt	9	-1	3.6	4	nt	nt
COc1cc(C(C)=O)ccc1COc1ccc(C(=O)O)cc1OC	5259	1	1	-0.7	-5	-1	-25
CNC(=O)c1c(NC(=O)c2nc3ccccc3s2)sc2c1CCC2	4297	-10	2	13	-7	-1	-117
C=CCn1c(SCC(=O)O)nnc1-c1cccs1	8853	14	-1	2.5	3	8	-23
O=C(c1cc2ccccc2oc1=O)N1CCSC1c1ccco1 (stereo not drawn)	3985	nt	nt	-0.5	5	2	-9
COC(=O)c1ccsc1NC(=O)C1COc2ccccc2O1 (stereo not drawn)	6148	1	3	8.7	13	-15	3
O=C(C1CC1)N1N=C(c2ccc(Br)cc2)CC1(O)C(F)(F)F (stereo not drawn)	2952	-2	5	3.6	-6	-15	-11
O=C1NC2(CCCc3ccccc32)C(=O)N1Cc1nnc(-c2ccccc2Br)o1 (stereo not drawn)	9302	-6	-4	-2.8	-34	0	-2
CN(C)c1cc[n+](CC(=O)Nc2ccccc2C(F)(F)F)cc1	3734	8	10	3.7	4	7	-17
CN(CC(=O)Nc1ccc(C(N)=O)cc1)CC(=O)Nc1ccccc1Cl	2131	-4	1	3.4	5	-12	-5
Cc1ccc2nc(SCC(=O)Nc3ccc(F)cc3F)nc(=O)n2c1	nt	-2	7	3.1	3	4	-12
CC1(C)Oc2ccc(C(=O)N3CCOCC3)cc2N(CC(=O)Nc2ccccc2)C1=O	3954	nt	nt	0.9	2	1	-13
COCCCn1c(Cc2ccccc2)nnc1SCC(=O)N1CCCCC1	22748*	-3	0	0.4	-5	6	-11
O=C1CNC(=S)N1Cc1ccc(Cl)cc1	3628	0	5	-4.5	11	4	-27

Molecules above that contain two or more sulfur atoms:
SMILES	Bead autofluor	Mtb hypoxia rep	Mtb hypoxia rep growth	RN4220 kill	Sa ugtP lethal	BJeLR lethal	PrP 5UTR inh
O=C1NC(=S)NC(=O)C1=Cc1ccc(Br)s1	3982	8	3	6.1	0	-1	-12
CN1CCN(C(=O)CCN2C(=O)/C(=C\c3ccc(Cl)cc3Cl)SC2=S)CC1	3052	11	8	-0.4	77	5	7
COc1ccc(Cl)cc1N1C(=O)/C(=C/c2sccc2C)N=C1SCC(=O)NC1CC1	4034	-8	7	-10	-29	nt	nt
CCCN(CCC)CCCNC(=O)CN1C(=O)CSc2ccc(S(=O)(=O)N3CCOCC3)cc21	4614	1	2	0.1	1	-3	-42
CNC(=O)c1c(NC(=O)c2nc3ccccc3s2)sc2c1CCC2	4297	-10	2	13	-7	-1	-117
C=CCn1c(SCC(=O)O)nnc1-c1cccs1	8853	14	-1	2.5	3	8	-23

Continued.
SMILES	Bead autofluor	Mtb hypoxia rep	Mtb hypoxia rep growth	RN4220 kill	Sa ugtP lethal	BJeLR lethal	PrP 5UTR inh
CCOc1ccc(S(=O)(=O)N2CCCCC2)cc1NC(=O)CN1C(=O)NC(C)(c2ccc(C)cc2)C1=O (stereo not drawn)	nt	4	5	1.3	-2	3	-6
O=C(c1ccc([N+](=O)[O-])cc1)N1CCSC1c1ccc(Br)cc1 (stereo not drawn)	4390	-4	-11	-1.9	7	-10	-9
CCOc1ccccc1NC(=O)CSc1nncc2ccccc12	4259	-4	-4	1.3	-2	-9	-2
Cc1ccc(C)c(S(=O)(=O)N(C)c2ccc(OC(=O)CN3C(=O)NC4(CCCC4)C3=O)cc2)c1	3581	13	10	4.2	-7	nt	-6
Cc1ccc(NC(=O)CSc2nnc(CNC(=O)c3ccccc3F)o2)cc1	2014	-6	0	1.0	9	0	-8
ClC1(Cl)CC1Cn1c(C2CC2)nc2ccccc21 (stereo not drawn)	4247	0	-2	-4.9	-8	3	-24
Cc1ccccc1Nc1nc2ccccc2n1C(C)C	2250	1	-5	3.6	1	-2	-12
O=C(O)c1ccccc1N1C(=O)C2C3CCC(C3)C2C1=O (stereo not drawn)	3838	6	3	3.5	2	-14	5
Nc1ccccc1C(=O)NCc1ccco1	3849	10	9	3.4	8	-5	-26
